A1 apoptosis 2 – A1 inhibitors via caspase activation, primary screen, cell-based, luminescence, HTS, two replicates | MEF A1-2A-BIM cells, caspase-Glo luminescence, 3 h; percent of clofoctol response, DMSO zero | caspase activation, % (no concentration beside the values) | 24,000 tested, under 10 active | AID 2465, 2010; in the data active = caspase activation above about 5.9%;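 note: wells of about 30 µL received 50 nL stock; the first replicate is given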
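Material: A1-2A-BIM-expressing MEF cells. Buffer or medium: RPMI-1640 plus 10% FBS. Incubation: cells settled overnight, compound exposure 3 h at 37 °C, 5% CO2. Signal: Caspase-Glo 3/7 luminescence, 1 h at room temperature.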
* marks the source's active call; other numbers are inactive results. The list is partial; count on the stated rates, not on these rows.

Molecule | A1 apoptosis 2
C[C@H](CO)N1C[C@H](C)[C@@H](CN(C)CC2CCCCC2)Oc2ccc(NS(=O)(=O)c3cccs3)cc2C1=O | 0.1
C[C@H](CO)N1C[C@H](C)[C@@H](CN(C)Cc2ccccc2)OCCCC[C@H](C)Oc2ccc(NS(C)(=O)=O)cc2C1=O | 0.0
CC(C)NC(=O)N(C)C[C@H]1Oc2ccc(NC(=O)CCCN(C)C)cc2C(=O)N([C@H](C)CO)C[C@@H]1C | -0.3
COc1ccc(CN(C)C[C@@H]2OCCCC[C@@H](C)Oc3ccc(NC(=O)Nc4c(C)noc4C)cc3C(=O)N([C@H](C)CO)C[C@H]2C)cc1 | -0.4
C[C@@H]1CCCCO[C@H](CN(C)Cc2ccc(C(F)(F)F)cc2)[C@H](C)CN([C@@H](C)CO)C(=O)c2cc(NC(=O)NC3CCCCC3)ccc2O1 | -0.4
C[C@@H]1CN([C@@H](C)CO)C(=O)c2cc(NS(=O)(=O)c3cn(C)cn3)ccc2O[C@@H]1CN(C)S(=O)(=O)c1ccc(Cl)cc1 | -0.1
C[C@@H]1CN([C@@H](C)CO)C(=O)Cc2cc(NC(=O)NC3CCCCC3)ccc2O[C@@H]1CN(C)S(=O)(=O)c1ccc(Cl)cc1 | 1.2
COc1ccc(S(=O)(=O)N(C)C[C@@H]2Oc3c(NS(C)(=O)=O)cccc3C(=O)N([C@H](C)CO)C[C@@H]2C)cc1 | -0.4
O=C(N/N=C/c1ccncc1Br)c1ccccn1 | -10
C[C@@H]1CN([C@@H](C)CO)C(=O)Cc2cc(NC(=O)C3CC3)ccc2O[C@H]1CN(C)S(=O)(=O)c1cn(C)cn1 | -0.7
COc1cccc(S(=O)(=O)N(C)C[C@@H]2Oc3ncc(Br)cc3C(=O)N([C@H](C)CO)C[C@@H]2C)c1 | -0.9
C[C@@H]1CN([C@H](C)CO)C(=O)Cc2cc(N(C)C)ccc2O[C@@H]1CN(C)C(=O)Nc1cccc2ccccc12 | 0.5
C[C@H](CO)N1C[C@H](C)[C@H](CN(C)Cc2ccncc2)Oc2c(NC(=O)NC3CCCCC3)cccc2C1=O | -1.8
C[C@@H]1CN([C@H](C)CO)C(=O)CCCn2cc(nn2)CO[C@H]1CN(C)Cc1ccccc1 | -0.3
C[C@@H]1CN([C@H](C)CO)C(=O)Cc2cc(NS(C)(=O)=O)ccc2O[C@H]1CN(C)C(=O)Nc1ccc(C(F)(F)F)cc1 | -0.1
CC(C)NC(=O)N(C)C[C@@H]1OCc2cn(nn2)CCCC(=O)N([C@@H](C)CO)C[C@@H]1C | -0.1
C[C@@H]1CN([C@@H](C)CO)C(=O)Cc2cc(NC(=O)CCCN(C)C)ccc2O[C@H]1CN(C)S(=O)(=O)c1ccccc1 | 2.6
C[C@H]1CN([C@@H](C)CO)C(=O)c2cccc(NC(=O)C3CCOCC3)c2O[C@H]1CN(C)C(=O)Nc1ccc2c(c1)OCO2 | 0.6
C[C@H](CO)N1C[C@H](C)[C@@H](CN(C)C(=O)NC2CCCCC2)OCCCC[C@H](C)Oc2ccc(NS(=O)(=O)c3ccc(F)cc3)cc2C1=O | -2.1
C[C@H](CO)N1C[C@H](C)[C@H](CN(C)C)OCCCC[C@H](C)Oc2ccc(NC(=O)Nc3ccccc3)cc2C1=O | -0.1
Cc1ccc(S(=O)(=O)Nc2ccc3c(c2)C(=O)N([C@H](C)CO)C[C@H](C)[C@@H](CN(C)CC2CCCCC2)O3)cc1 | 1.3
C[C@@H]1CN([C@@H](C)CO)C(=O)c2cc(NS(=O)(=O)c3cccs3)ccc2O[C@@H](C)CCCCO[C@@H]1CN(C)C | 0.0
COc1ccc(NC(=O)N(C)C[C@@H]2OCCCC[C@H](C)Oc3ccc(NS(=O)(=O)c4cn(C)cn4)cc3C(=O)N([C@H](C)CO)C[C@H]2C)cc1 | 2.8
C[C@@H]1CN([C@H](C)CO)C(=O)c2cc(NC(=O)CCCN(C)C)ccc2O[C@H]1CN(C)S(=O)(=O)c1cccs1 | 0.6
CC(C)NC(=O)N(C)C[C@@H]1Oc2c(NS(=O)(=O)c3cccs3)cccc2C(=O)N([C@@H](C)CO)C[C@H]1C | 0.5
COc1ccc(S(=O)(=O)N(C)C[C@H]2Oc3ccc(NC(=O)Cn4cnnn4)cc3CC(=O)N([C@H](C)CO)C[C@H]2C)cc1 | 0.2
C[C@@H]1CCCCO[C@H](CN(C)C(=O)Nc2cccc3ccccc23)[C@@H](C)CN([C@@H](C)CO)C(=O)c2cc(NC(=O)CCCN(C)C)ccc2O1 | 0.4
C[C@@H]1CN([C@H](C)CO)C(=O)Cc2cc(NS(=O)(=O)c3cn(C)cn3)ccc2O[C@@H]1CN(C)CC1CC1 | 0.1
Cc1noc(C)c1NC(=O)Nc1ccc2c(c1)C(=O)N([C@@H](C)CO)C[C@H](C)[C@H](CN(C)CC1CCCCC1)O2 | 0.2
Cc1noc(C)c1NC(=O)Nc1ccc2c(c1)C(=O)N([C@@H](C)CO)C[C@H](C)[C@H](CN(C)C)OCCCC[C@@H](C)O2 | -0.8

The list goes on (five carried over from the part before).
Molecule | A1 apoptosis 2
COc1ccc(S(=O)(=O)N(C)C[C@H]2Oc3ccc(NC(=O)Cn4cnnn4)cc3CC(=O)N([C@H](C)CO)C[C@H]2C)cc1 | 0.2
C[C@@H]1CCCCO[C@H](CN(C)C(=O)Nc2cccc3ccccc23)[C@@H](C)CN([C@@H](C)CO)C(=O)c2cc(NC(=O)CCCN(C)C)ccc2O1 | 0.4
C[C@@H]1CN([C@H](C)CO)C(=O)Cc2cc(NS(=O)(=O)c3cn(C)cn3)ccc2O[C@@H]1CN(C)CC1CC1 | 0.1
Cc1noc(C)c1NC(=O)Nc1ccc2c(c1)C(=O)N([C@@H](C)CO)C[C@H](C)[C@H](CN(C)CC1CCCCC1)O2 | 0.2
Cc1noc(C)c1NC(=O)Nc1ccc2c(c1)C(=O)N([C@@H](C)CO)C[C@H](C)[C@H](CN(C)C)OCCCC[C@@H](C)O2 | -0.8
C[C@H](CO)N1C[C@H](C)[C@H](CN(C)C(=O)Nc2cccc3ccccc23)Oc2ccc(NC(=O)Nc3ccc(C(F)(F)F)cc3)cc2CC1=O | -0.8
COc1ccc(NC(=O)Nc2ccc3c(c2)C(=O)N([C@H](C)CO)C[C@@H](C)[C@H](CN(C)Cc2ccc(C(F)(F)F)cc2)O3)cc1 | -0.1
C[C@@H]1CN([C@@H](C)CO)C(=O)c2cc(NC(=O)Nc3ccc4c(c3)OCO4)ccc2O[C@H]1CN(C)C(=O)Nc1ccc(C(F)(F)F)cc1 | -1.7
C[C@H]1CN([C@@H](C)CO)C(=O)Cc2cc(NS(=O)(=O)c3ccccc3)ccc2O[C@@H]1CN(C)S(=O)(=O)c1ccc(F)cc1 | -0.3
COc1ccc(S(=O)(=O)N(C)C[C@@H]2Oc3ccc(NC(=O)CCCCCC(=O)Nc4ccccc4N)cc3CC(=O)N([C@@H](C)CO)C[C@@H]2C)cc1 | 1.0
C[C@@H]1CN([C@@H](C)CO)C(=O)c2cccc(NC(=O)NC3CCCCC3)c2O[C@@H]1CN(C)Cc1ccc(C(=O)O)cc1 | 1.0
C[C@H](CO)N1C[C@H](C)[C@@H](CN(C)C(=O)Nc2ccc(C(F)(F)F)cc2)Oc2ccc(NC(=O)CCN3CCOCC3)cc2C1=O | -0.5
C[C@H](CO)N1C[C@H](C)[C@H](CN(C)S(=O)(=O)c2ccc(F)cc2)Oc2ccc(NC(=O)CCN3CCOCC3)cc2CC1=O | -0.2
C[C@@H]1CCCCO[C@H](CN(C)C(=O)c2ccccc2)[C@@H](C)CN([C@@H](C)CO)C(=O)c2cc(N(C)C)ccc2O1 | 1.7
CO[C@H]1O[C@H](CO)[C@@H](OC(=O)Nc2cccc(F)c2)[C@H](OC(=O)Nc2ccc3c(c2)OCO3)[C@@H]1OC(=O)Nc1ccc2c(c1)OCO2 | -0.1
C[C@H](CO)N1C[C@H](C)[C@@H](CN(C)Cc2ccc(-c3ccccc3)cc2)Oc2ccc(NC(=O)CCCN(C)C)cc2CC1=O | 0.4
Cc1cc(C(=O)Nc2cccc3c2O[C@@H](CN(C)CC2CCCCC2)[C@H](C)CN([C@@H](C)CO)C3=O)n(C)n1 | -0.1
O=C(CCCCCC(=O)Nc1ccccc1O)N/N=C/c1cc(F)ccc1O | 0.9
CC(C)NC(=O)Nc1ccc2c(c1)C(=O)N([C@H](C)CO)C[C@H](C)[C@@H](CN(C)Cc1ccc(Cl)c(Cl)c1)OCCCC[C@@H](C)O2 | -1.3
C[C@H](CO)N1C[C@H](C)[C@H](CN(C)CC2CC2)Oc2ccc(NC(=O)c3ccncc3)cc2C1=O | -0.6
COc1ccc(CN(C)C[C@@H]2OCCCC[C@H](C)Oc3ccc(NC(=O)C4CCCCC4)cc3C(=O)N([C@H](C)CO)C[C@@H]2C)cc1 | -1.4
C[C@@H]1CCCCO[C@H](CN(C)Cc2ccc(C(=O)O)cc2)[C@@H](C)CN([C@H](C)CO)C(=O)c2cc(NC(=O)c3ccncc3)ccc2O1 | -0.3
Cc1noc(C)c1S(=O)(=O)Nc1ccc2c(c1)CC(=O)N([C@H](C)CO)C[C@H](C)[C@@H](CN(C)Cc1ccccc1)O2 | -1.4
C[C@H](CO)N1C[C@H](C)[C@@H](CN(C)S(=O)(=O)c2cccs2)Oc2ccc(NC(=O)CCCN(C)C)cc2C1=O | -1.3
C[C@H](CO)N1C[C@H](C)[C@H](CN(C)S(=O)(=O)c2ccccc2)Oc2ccc(NC(=O)CCN3CCOCC3)cc2CC1=O | 0.1
O=C(NO)c1ccc(C(=O)N/N=C/c2ccc(Br)cc2)cc1 | -0.6
C[C@@H]1CCCCO[C@@H](CN(C)C(=O)c2ccccc2)[C@@H](C)CN([C@H](C)CO)C(=O)c2cc(NC(=O)c3ccncc3)ccc2O1 | 0.8
C[C@@H]1CCCCO[C@@H](CN(C)Cc2ccccc2)[C@@H](C)CN([C@@H](C)CO)C(=O)c2cc(NS(C)(=O)=O)ccc2O1 | -1.5
C[C@H](CO)N1C[C@H](C)[C@H](CN(C)Cc2ccc(Cl)c(Cl)c2)Oc2ccc(NS(=O)(=O)c3ccccc3)cc2CC1=O | 0.3
Cc1noc(C)c1NC(=O)N(C)C[C@H]1Oc2c(NS(=O)(=O)c3c(C)noc3C)cccc2C(=O)N([C@@H](C)CO)C[C@H]1C | -0.5
C=CCOC(=O)[C@H]1[C@@H]2C(=O)O[C@@H](c3ccccc3)[C@@H](c3ccccc3)N2[C@@H](c2ccc(OCCOC(=O)[C@@H]3C[C@@H]4C(=O)N5CCC[C@H]5C(=O)N4[C@@H]3c3ccc(O)cc3)cc2)[C@]12C(=O)Nc1ccc(I)cc12 | 0.8
CC(C)NC(=O)Nc1ccc2c(c1)C(=O)N([C@H](C)CO)C[C@H](C)[C@@H](CN(C)C(=O)CCCN(C)C)OCCCC[C@@H](C)O2 | 1.0
C[C@H](CO)N1C[C@H](C)[C@@H](CN(C)C(=O)Nc2ccc3c(c2)OCO3)OCCCC[C@H](C)Oc2ccc(NC(=O)Nc3ccccc3)cc2C1=O | -0.5
Cc1noc(C)c1NC(=O)N(C)C[C@H]1Oc2ccc(NC(=O)C3CC3)cc2CC(=O)N([C@H](C)CO)C[C@@H]1C | 0.4
COc1ccc(NC(=O)Nc2ccc3c(c2)CC(=O)N([C@H](C)CO)C[C@@H](C)[C@H](CN(C)Cc2ccc(-c4ccccc4)cc2)O3)cc1 | -0.4
Cc1noc(C)c1NC(=O)Nc1cccc2c1O[C@@H](CN(C)Cc1ccc(C(F)(F)F)cc1)[C@@H](C)CN([C@H](C)CO)C2=O | -0.7
COc1ccc(S(=O)(=O)Nc2ccc3c(c2)C(=O)N([C@@H](C)CO)C[C@@H](C)[C@@H](CN(C)C(=O)Nc2c(C)noc2C)O3)cc1 | 0.0
C[C@@H]1CN([C@H](C)CO)C(=O)c2cc(NC(=O)C3CC3)ccc2O[C@H]1CN(C)Cc1ccc(Oc2ccccc2)cc1 | 1.5
C[C@H]1CN([C@@H](C)CO)C(=O)c2cc(NC(=O)CCCN(C)C)ccc2O[C@H]1CN(C)C(=O)NC1CCCCC1 | -0.5
C[C@@H]1CN([C@H](C)CO)C(=O)c2cc(NC(=O)Nc3ccccc3)ccc2O[C@@H](C)CCCCO[C@@H]1CN(C)Cc1ccccc1 | -0.6
COc1ccc(S(=O)(=O)N(C)C[C@@H]2Oc3ccc(NC(=O)c4ccncc4)cc3C(=O)N([C@@H](C)CO)C[C@@H]2C)cc1 | -1.7
COc1ccc(CN(C)C[C@H]2Oc3c(NC(=O)Nc4ccc(OC)cc4)cccc3C(=O)N([C@H](C)CO)C[C@@H]2C)cc1 | 0.8
C[C@H](CO)N1C[C@H](C)[C@H](CN(C)Cc2ccc(-c3ccccc3)cc2)Oc2ccc(NS(=O)(=O)c3cccs3)cc2C1=O | 0.8
COc1ccc(NC(=O)N(C)C[C@H]2OCCCC[C@@H](C)Oc3ccc(NS(=O)(=O)c4cccs4)cc3C(=O)N([C@@H](C)CO)C[C@H]2C)cc1 | 0.1
C[C@@H]1CN([C@H](C)CO)C(=O)Cc2cc(NC(=O)CCC(F)(F)F)ccc2O[C@@H]1CN(C)C | -0.9
COc1ccc(CN(C)C[C@@H]2OCCCC[C@H](C)Oc3ccc(NC(=O)CCCN(C)C)cc3C(=O)N([C@@H](C)CO)C[C@H]2C)cc1 | -0.1

Entries shown so far that contain bromine (3):
Molecule | A1 apoptosis 2
O=C(N/N=C/c1ccncc1Br)c1ccccn1 | -10
COc1cccc(S(=O)(=O)N(C)C[C@@H]2Oc3ncc(Br)cc3C(=O)N([C@H](C)CO)C[C@@H]2C)c1 | -0.9
O=C(NO)c1ccc(C(=O)N/N=C/c2ccc(Br)cc2)cc1 | -0.6

From PubChem
